rRNA inh HTS – reduced GFP signal of wild-type E. coli, primary screen, bacterial rRNA inhibitor project, GFP/RFP fluorescence, OD600, single point | E. coli WT GFP vs humanized-ribosome RFP mutants, 24 h; active compounds read low; DMSO median 0, no signal -100 | GFP signal change (wild-type ribosome), % (concentration not given with the values) | hit rate 1.6% among 350,000;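 active means significant combined selectivity score with lowered wild-type GFP, culture density cut under 30%, mutant RFP and density less affected; inactive means any of these conditions unmet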; further: one replicate is shown; some compounds called inactive have numbers as strong as hits
A1 inh – caspase 3/7 activation in MEF A1-2A-BIM cells, primary screen, A1 inhibitor project, cell-based, luminescence, HTS; caspase activation, % (concentration not given with the values); hit rate 0.066% among 330,000; AID 2462, 2010; Caspase-Glo 3/7 luminescence, 3 h; percent of clofoctol response, vehicle zero;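 active means over half of replicate activation scores above 10%, or exactly half above 10 with the replicate mean above 10; inconclusive means replicate mean below 10 yet half the replicates above 10; inactive means over half of replicates below 10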;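 further: wells of about 30 µL received 50 nL stock; many hits fall short of the cut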
ALR H2O2 inh – inhibitors of human ALR sulfhydryl oxidase, primary screen, biochemical, H2O2 detection, HRP-luminol luminescence, single point | purified ALR, DTT oxidation | inhibition, % (no concentration beside the values) | hit rate 3.8% among 290,000 | FAD-linked sulfhydryl oxidase ALR (Homo sapiens), P55789;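 active means mean and each replicate at 75% or more; inconclusive means only one of the two met; inactive means neither met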;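 further: stock transfer was 7.5 nL into about 7.5 µL; 0% = neutral wells and 100% = wells with inactivated enzyme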
T cruzi repl – inhibitors of intracellular T. cruzi growth, primary screen, luminescence, NIH3T3 host cells. T. cruzi beta-gal in NIH3T3, 90 h. inhibition, % (concentration not given with the values). hit rate 1.4% among 300,000;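 active means mean inhibition across valid replicates above about 55%, limit read from the data; inconclusive means mean below that limit but half or more replicates reach it; inactive means mean below it, under half of replicates reach it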;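 further: signal also drops with host cell toxicity which is not excluded here; 0% = plate median of DMSO wells and 100% = zero luminescence signal; higher percent means less beta-gal luminescence so fewer parasites; stock transfer was 50 nL into about 50 µL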
Calb FLC – C. albicans growth inhibition with fluconazole, primary screen, CaCi-2 strain, Alamar Blue fluorescence. C. albicans CaCi-2 (fluconazole-resistant clinical isolate) + fluconazole, 48 h. growth inhibition, % (concentration not given with the values). hit rate 0.57% among 300,000. AID 1979, 2009;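 active means most replicates above 75%; inconclusive means exactly half above 75%; inactive means most below 75%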;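 further: all wells also contain fluconazole at 8 µg/ml as a sub-toxic cotreatment; 0% = median of DMSO wells and 100% = median of geldanamycin control wells; wells of about 8 µL received 7.5 nL stock; the first replicate is given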
LANA-H2B inh – blockers of LANA interaction with H2A/H2B – biochemical, FP readout, HTS, primary screen | cell-free LANA-H2A/H2B peptide, fluorescence polarization | inhibition, % (no concentration beside the values) | hit rate 0.6% among 320,000 | AID 2629, 2010; in the data active means inhibition mostly above about 10%, no sharp cut-off; inactive means mostly below about 6.7%;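 further: stock transfer was 7.5 nL into about 10 µL; 0% = median of vehicle wells and 100% = median of positive control wells; one replicate is shown; the record names a cut of 25% in any replicate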
Target sequence (Q9QR71 whole entry, looked up): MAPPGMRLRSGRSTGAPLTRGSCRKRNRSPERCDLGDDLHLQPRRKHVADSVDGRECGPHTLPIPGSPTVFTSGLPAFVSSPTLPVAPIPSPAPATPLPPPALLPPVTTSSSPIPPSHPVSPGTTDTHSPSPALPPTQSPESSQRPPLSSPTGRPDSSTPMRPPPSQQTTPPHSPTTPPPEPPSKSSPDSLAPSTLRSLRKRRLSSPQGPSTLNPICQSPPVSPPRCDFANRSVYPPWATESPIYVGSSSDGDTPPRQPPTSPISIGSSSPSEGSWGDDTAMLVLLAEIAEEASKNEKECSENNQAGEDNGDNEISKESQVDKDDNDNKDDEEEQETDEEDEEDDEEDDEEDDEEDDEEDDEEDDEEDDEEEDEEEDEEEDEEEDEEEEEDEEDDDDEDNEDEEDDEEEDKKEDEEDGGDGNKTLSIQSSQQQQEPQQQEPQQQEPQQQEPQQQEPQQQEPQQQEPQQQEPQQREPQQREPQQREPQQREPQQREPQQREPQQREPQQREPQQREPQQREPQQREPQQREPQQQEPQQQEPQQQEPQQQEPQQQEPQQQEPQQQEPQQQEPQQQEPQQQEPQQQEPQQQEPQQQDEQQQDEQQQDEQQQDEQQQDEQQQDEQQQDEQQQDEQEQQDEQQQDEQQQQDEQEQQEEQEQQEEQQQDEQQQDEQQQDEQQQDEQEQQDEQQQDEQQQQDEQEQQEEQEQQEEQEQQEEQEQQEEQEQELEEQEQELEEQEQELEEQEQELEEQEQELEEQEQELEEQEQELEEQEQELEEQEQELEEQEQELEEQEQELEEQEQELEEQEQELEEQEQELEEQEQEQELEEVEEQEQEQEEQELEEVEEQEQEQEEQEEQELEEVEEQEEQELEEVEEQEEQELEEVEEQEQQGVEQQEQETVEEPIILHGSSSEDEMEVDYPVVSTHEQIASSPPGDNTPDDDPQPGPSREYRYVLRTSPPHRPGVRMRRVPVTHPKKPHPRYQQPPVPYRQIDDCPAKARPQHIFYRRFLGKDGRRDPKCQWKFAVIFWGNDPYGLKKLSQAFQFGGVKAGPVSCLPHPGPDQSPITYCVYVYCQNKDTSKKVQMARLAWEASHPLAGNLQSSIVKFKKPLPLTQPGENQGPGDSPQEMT
Beta apoptosis – inhibitors of cytokine-induced beta cell apoptosis, primary screen, luminescence. INS-1E cytokine-induced death, ATP luminescence, 48 h; percent of positive-control rescue, neutral wells zero. protection from apoptosis, % (test concentration not listed). hit rate 0.8% among 300,000;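 active means all replicates at 75% or more, or half of them and the mean; inconclusive means half reach 75% but not the mean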;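 further: 0% = cytokine-treated negative control wells and 100% = positive control rescue; higher means more ATP so stronger rescue from cytokine killing; wells of about 40 µL received 100 nL stock; the first replicate is given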
B2AR ag – beta2AR agonists driving receptor internalization, primary screen, cell-based, FAP fluorogen, flow cytometry; response, % (concentration not given with the values); hit rate 0.43% among 340,000; Beta-2 adrenergic receptor (Homo sapiens), P07550; Am2.2-beta2AR cells; reference of the scale not given here;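 active means response above a set limit, near 3 SD of response in nonfluorescent compounds, cut at about 42% in these data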;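 further: stock transfer was 100 nL into about 11 µL; a reference agonist was the positive control; negative values mostly stem from fluorescent compounds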
rRNA inh HTS OD600 – also measured in rRNA inh HTS; calls as there; OD600 change, %; measured here: OD600 growth;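 optical density of the mix in the first replicate; 0 = DMSO median and -100 = no signal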
rRNA inh HTS RFP – recorded beside rRNA inh HTS, whose call it bears; RFP signal change, %; measured here: RFP humanized mutant strains;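 first replicate; 0 = DMSO median and -100 = no signal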
* marks the source's active call; other numbers are inactive results; ? = inconclusive; . = not tested or not shown.

No.	canonical_smiles	rRNA inh HTS	rRNA inh HTS OD600	rRNA inh HTS RFP	A1 inh	ALR H2O2 inh
1	Cc1ccc(C(=O)OCC(=O)NCc2ccccc2)cc1S(=O)(=O)N1CCCCC1	-13.6	-7.7	3.4	-0.4	-8.2
2	CCOc1ccccc1CNC(=O)CCn1ccc2cc(S(=O)(=O)N3CCCCC3)ccc21	-2.2	-13.8	4.3	-0.3	-10.2
3	Cc1ccc(C)c(Nc2ccc3nonc3c2[N+](=O)[O-])c1	-1.9	5.4	-4.3	0.6	-7.7
4	CC(=O)N1CCN(C(=O)CSc2ncnc3sc(C)c(C)c23)CC1	5.6	8.1	-2.4	1.4	-3.0
5	O=C(CSc1nnc(-c2cccnc2)n1-c1ccccc1)Nc1ccc2c(c1)OCO2	.	.	.	1.8	-1.3
6	O=C(CNC(=O)c1ccc(Br)o1)NCC1COc2ccccc2O1 (configuration not stated)	3.9	-11.1	2.7	-0.2	-1.1
7	O=C1C=C(c2ccc(F)c(Cl)c2)C[C@@H](c2ccc(F)cc2)C1	-24.3	-31.8	-12.3	0.2	-2.9
8	O=C(NCCN1CCOCC1)c1cc([N+](=O)[O-])ccc1Cl	28.6	19.9	3.8	-0.5	.

No.	T cruzi repl	Calb FLC	LANA-H2B inh	Beta apoptosis	B2AR ag
1	.	.	7.4	2.4	-5.3
2	14.0	-12.2	-1.9	-1.2	-2.2
3	3.5	-3.7	-0.4	1.1	-4.5
4	.	.	-0.5	-1.5	-9.5
5	14.9	10.9	4.4	3.0	-6.9
6	.	.	-0.9	-2.7	-7.6
7	.	.	0.1	6.4	0.3
8	43.8	-0.1	-4.2	-0.9	-1.3

Gathered by group: the compounds so far containing a nitro group on carbon.
No.	canonical_smiles	rRNA inh HTS	rRNA inh HTS OD600	rRNA inh HTS RFP	A1 inh	ALR H2O2 inh
3	Cc1ccc(C)c(Nc2ccc3nonc3c2[N+](=O)[O-])c1	-1.9	5.4	-4.3	0.6	-7.7
8	O=C(NCCN1CCOCC1)c1cc([N+](=O)[O-])ccc1Cl	28.6	19.9	3.8	-0.5	.

No.	T cruzi repl	Calb FLC	LANA-H2B inh	Beta apoptosis	B2AR ag
3	3.5	-3.7	-0.4	1.1	-4.5
8	43.8	-0.1	-4.2	-0.9	-1.3

Back to the main list; the three compounds before the break are reprinted first.
No.	canonical_smiles	rRNA inh HTS	rRNA inh HTS OD600	rRNA inh HTS RFP	A1 inh	ALR H2O2 inh
6	O=C(CNC(=O)c1ccc(Br)o1)NCC1COc2ccccc2O1 (configuration not stated)	3.9	-11.1	2.7	-0.2	-1.1
7	O=C1C=C(c2ccc(F)c(Cl)c2)C[C@@H](c2ccc(F)cc2)C1	-24.3	-31.8	-12.3	0.2	-2.9
8	O=C(NCCN1CCOCC1)c1cc([N+](=O)[O-])ccc1Cl	28.6	19.9	3.8	-0.5	.
9	O=C(O)CCCCCNS(=O)(=O)c1cccc2nsnc12	.	.	.	0.0	-6.3
10	O=C(N/N=C/c1c[nH]c2ccccc12)C1CC1(c1ccccc1)c1ccccc1 (configuration not stated)	.	.	.	0.4	-4.8
11	Cc1cccn2c(=O)c(/C=C(\C#N)C(=O)NCc3ccco3)c(N3CCOCC3)nc12	-2.6	8.9	-2.4	-0.5	-11.7
12	C=CCn1nc(-c2ccccc2)cc1C(=O)OCC	-7.8	-15.2	-1.2	-0.3	4.0
13	COc1ccc(CNn2cnnc2)c(O)c1	7.1	11.4	-1.0	0.2	2.1
14	Cc1ccc(C(c2nnnn2C2CCCCC2)N(C)C2CCCCC2)cc1 (configuration not stated)	.	.	.	-0.2	-3.0
15	Cc1nc(Cl)sc1C(=O)Nc1ccccc1Cl	-2.1	-15.8	-0.9	0.7	1.9
16	CN(Cc1ccccc1)C(=O)c1ccc2c(c1)NC(=O)C(N1CCOCC1)S2 (configuration not stated)	0.8	2.7	-5.2	.	.

No.	T cruzi repl	Calb FLC	LANA-H2B inh	Beta apoptosis	B2AR ag
6	.	.	-0.9	-2.7	-7.6
7	.	.	0.1	6.4	0.3
8	43.8	-0.1	-4.2	-0.9	-1.3
9	1.4	?	-3.3	-1.8	-5.1
10	2.0	-4.3	-7.4	12.8	7.2
11	11.4	-4.1	-4.7	.	-21.5
12	-10.7	0.0	-7.5	-4.8	-2.7
13	-8.6	-8.7	0.8	.	6.2
14	43.1	-5.1	2.0	-1.8	2.8
15	2.5	11.5	-3.3	-3.6	2.9
16	1.4	2.8	.	.	1.5

More results:
No.	canonical_smiles	rRNA inh HTS	rRNA inh HTS OD600	rRNA inh HTS RFP	A1 inh	ALR H2O2 inh
17	COCc1nc2ccccc2n1Cc1cccc(C)c1	.	.	.	0.2	-8.6
18	O=C(Nc1ccccc1-c1ccccc1)c1ccc(=O)[nH]n1	-4.2	-9.5	-1.5	0.4	-0.7
19	O=C(NCc1ccc2c(c1)OCO2)c1nc(Cn2cc(Br)cn2)no1	-1.1	2.5	4.0	-0.6	-3.1
20	Cc1cc(NC(=O)CSc2nc3c(cc2C#N)CCCC3)no1	.	.	.	-0.1	-8.6
21	CC(C)Cn1c(=O)oc2ccccc21	11.5	12.7	0.1	-1.3	-11.9
22	CCOC(=O)CCNC(=O)N1CCCC(C(=O)c2ccc3c(c2)OCO3)C1 (configuration not stated)	11.2	6.6	4.5	0.2	-10.7
23	O=C(NCc1ccccc1F)C1CC(=O)N(c2ccc3c(c2)OCCO3)C1 (configuration not stated)	7.5	2.9	1.9	0.2	-1.2
24	CCn1ncc(Br)c1C(=O)N(C)C12CC3CC(CC(C3)C1)C2	.	.	.	?	0.2

No.	T cruzi repl	Calb FLC	LANA-H2B inh	Beta apoptosis	B2AR ag
17	13.4	-6.1	0.8	-1.3	1.8
18	-19.8	26.0	-3.5	.	0.9
19	-6.0	2.7	-1.8	-3.2	-3.9
20	-11.9	3.5	3.0	7.3	-19.4
21	-15.3	-29.9	-5.4	-5.2	9.1
22	0.8	0.5	1.1	-2.2	4.6
23	-5.5	5.7	-0.8	-1.2	-8.6
24	21.8	-4.7	-1.4	-0.2	-2.9

(list continues)
No.	canonical_smiles	rRNA inh HTS	rRNA inh HTS OD600	rRNA inh HTS RFP	A1 inh	ALR H2O2 inh
25	CC(C)c1c(C(=O)N/N=C/c2cccc(OCc3ccc(F)cc3)c2)nnn1-c1nonc1N	-5.4	-14.3	0.9	-0.4	-9.5
26	CCc1c(C#N)c(SCCC(=O)Nc2ccc(OC)cc2)nc2c1C(=O)CC(C)(C)C2	.	.	.	0.5	.
27	O=C(COc1ccc(Br)cc1)Nc1ccc(Cc2ccncc2)cc1	1.3	-3.0	0.6	0.3	-4.6
28	CCOC(=O)c1ccc(NC(=O)Cn2c(C)nc3c(sc(=S)n3CC)c2=O)cc1	11.4	2.3	4.0	0.4	-4.7
29	COC(=O)/C(=C1/Oc2cc(C)oc(=O)c2S1)C(F)(F)F	26.1	10.5	1.4	0.3	16.1

No.	T cruzi repl	Calb FLC	LANA-H2B inh	Beta apoptosis	B2AR ag
25	12.1	-11.5	2.4	0.1	5.5
26	22.3	-2.9	-8.3	9.2	4.9
27	-5.5	34.8	-2.3	-3.8	-0.1
28	-8.9	-23.6	-2.5	-0.1	-4.2
29	46.9	20.3	-6.9	-6.4	8.4

Compound activity as filed in PubChem BioAssay.

A portion of the library; count on the stated rates, not on these rows.
